UCH37 inh: human UCH37 deubiquitinating enzyme inhibition. AID 588478. inhibition, % (concentration not given with the values). 330,000 tested, 0.33% active. purified proteasome/UCH37, Ub-AMC cleavage fluorescence;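 active means mean of two replicates above 20%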;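 further: 0% = compound-free wells with enzyme and 100% = wells lacking proteasome; stock transfer was 100 nL into about 20 µL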
Target sequence (Q9Y5K5 whole entry, looked up): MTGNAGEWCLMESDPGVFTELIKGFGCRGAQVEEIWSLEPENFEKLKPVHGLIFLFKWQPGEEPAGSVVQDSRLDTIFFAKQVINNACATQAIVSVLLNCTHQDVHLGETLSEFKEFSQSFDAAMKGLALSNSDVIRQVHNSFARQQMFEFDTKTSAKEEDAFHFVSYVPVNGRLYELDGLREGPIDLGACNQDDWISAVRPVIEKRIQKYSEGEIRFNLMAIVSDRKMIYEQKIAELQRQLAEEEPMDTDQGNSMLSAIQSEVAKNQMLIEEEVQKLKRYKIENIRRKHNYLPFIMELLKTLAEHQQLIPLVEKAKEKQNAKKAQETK
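Test system – human UCH37 enzyme supplied as purified proteasome complex · Incubation – 30 min preincubation with enzyme, 25 min cleavage at room temperature · Detection – AMC fluorescence from Ub-AMC cleavage, excitation 355 nm, emission 460 nm · Benchmarks – no-proteasome wells (full inhibition) and compound-free wells (no inhibition)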
Bfl-1 A1 inh: inhibitors of the anti-apoptotic protein A1, read as caspase activation | MEF A1-2A-BIM cells, Caspase-Glo 3/7 luminescence, 3 h; percent of clofoctol response, vehicle zero | caspase activation, % (test concentration not listed) | 330,000 tested, 0.066% active | AID 2462;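 active means over half of replicate activation scores above 10%, or exactly half above 10 with the replicate mean above 10; inconclusive means replicate mean below 10 yet half the replicates above 10; inactive means over half of replicates below 10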;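 further: wells of about 30 µL received 50 nL stock; many hits fall short of the cut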
Beta2AR agonist: human beta-2 adrenergic receptor agonism by FAP | P07550 | Am2.2-beta2AR cells, FAP receptor internalization, flow cytometry; reference of the scale not given here | response, % (test concentration not listed) | 340,000 tested, 0.43% active;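 active means response above a set limit, near 3 SD of response in nonfluorescent compounds, cut at about 42% in these data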;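 further: stock transfer was 100 nL into about 11 µL; a reference agonist was the positive control; negative values mostly stem from fluorescent compounds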
Target sequence (P07550 whole entry, looked up): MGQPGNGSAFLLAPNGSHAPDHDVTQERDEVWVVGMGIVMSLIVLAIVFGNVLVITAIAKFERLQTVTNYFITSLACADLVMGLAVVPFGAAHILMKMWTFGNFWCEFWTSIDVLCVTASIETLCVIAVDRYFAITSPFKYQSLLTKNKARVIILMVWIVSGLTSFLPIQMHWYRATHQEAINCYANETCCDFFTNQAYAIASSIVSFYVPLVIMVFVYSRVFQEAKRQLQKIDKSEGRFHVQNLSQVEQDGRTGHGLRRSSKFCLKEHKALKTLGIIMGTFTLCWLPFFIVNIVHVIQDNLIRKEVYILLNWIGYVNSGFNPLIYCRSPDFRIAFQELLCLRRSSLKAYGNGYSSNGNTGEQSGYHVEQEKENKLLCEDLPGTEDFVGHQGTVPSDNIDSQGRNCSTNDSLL
Ecoli growth: E. coli growth inhibition | Escherichia coli growth, OD600, 23 h; active compounds read low | OD600 absorbance (test concentration not listed) | 330,000 tested, 0.21% active | AID 1053175;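 active means OD600 absorbance below the run mean of sample wells minus 3.6 SD, in any replicate, cut at about 0.56 in these data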;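 further: stock transfer was 300 nL into about 60 µL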
HNF4A DNA FP: change in binding of human HNF4 alpha to DNA; AID 1224865; activity change, % at 10 µM; 360,000 tested, 0.3% active; HNF4a-FITC DNA binding, fluorescence polarization, 1 h; P41235; in the data active means activity change above about 30%, passing the limit was not always enough;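 further: controls were the assay level and a saturating level of protein; the project sought stronger binding though the title names inhibitors; some compounds called inactive have numbers as strong as hits; positive values seem to mean higher polarization but the record does not say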
LANA-H2B inh: blocks KSHV LANA binding to histone H2A/H2B | AID 2629 | inhibition, % (concentration not given with the values) | 320,000 tested, 0.6% active | Q9QR71 | cell-free LANA-H2A/H2B peptide, fluorescence polarization; in the data active means inhibition mostly above about 10%, no sharp cut-off; inactive means mostly below about 6.7%;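 further: stock transfer was 7.5 nL into about 10 µL; 0% = median of vehicle wells and 100% = median of positive control wells; one replicate is shown; the record names a cut of 25% in any replicate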
Vif TR-FRET: inhibitors of Vif binding to APOBEC3G peptide, primary screen, biochemical, TR-FRET, GST-Vif 1-94, biotin-A3G peptide, dose response retest (AID 1117319); 260,000 tested, 0.57% active; inhibition, %; hits with a dose series show IC50 in µM; TR-FRET GST-Vif / biotin-A3G peptide binding; higher % means a stronger effect; test concentration not given here; strong numbers were not always called active;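 active means above the screen mean plus three standard deviations and confirmed in dose response; inconclusive means results disagree or hit not tested in dose response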;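 further: Vif residues 1-94 fused to GST binding biotinylated APOBEC3G peptide 110-148; 0% = full assay without inhibitor and 100% = GST in place of GST-Vif; retest series ran down from 100 µM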
Starred values were filed as active, the others as inactive; i = inactive; ? = inconclusive; · = no result given. No enrichment for hits, and some 2.1% of all compounds hit somewhere here.

Structure,UCH37 inh,Bfl-1 A1 inh,Beta2AR agonist,Ecoli growth,HNF4A DNA FP,LANA-H2B inh,Vif TR-FRET
Cc1ccc(NC(=O)c2ccccc2CCc2ccccc2)c(C)c1,2.4,1.6,-5.1,0.687,-0.2,5.5,-3.6%
CCO/N=C(\C)c1c(O)c(CC)c(-c2ccccc2)n(-c2ccccc2)c1=O,·,0.1,2.9,·,0.7,3.8,4.3%
COc1ccc(-c2nnc(SCC(=O)Nc3ccc(C(=O)O)cc3)n2-c2ccc(Cl)cc2)cc1,2.7,1.6,17.8,0.67,-5.4,2.5,11.5%
Cc1ccc(N2C(=O)CC(c3ccsc3)C3=C2CC(C)(C)CC3=O)cc1 (stereo unspecified),3.9,-0.1,1.6,0.719,-2.6,2.6,0.0%
O=C(NCc1cccnc1)c1ccccn1,2.0,0.7,-1.1,0.681,2.2,-3.1,16.8%
Cc1ccc(NC(=O)Nc2cnc3ccccc3c2)cc1,-32.0,-2.0,8.4,0.675,2.6,2.4,23.7%
COc1cc(C)ccc1OCCCOc1cc(C)ccc1Cl,1.3,-0.4,-2.0,0.747,-1.8,4.2,-6.4%
O=C(C[n+]1cc(-c2ccc(F)cc2)n2c1CCC2)OCc1ccccc1,5.2,0.7,9.9,0.705,3.8,7.7,0.8%
O=C(COc1ccccc1/C=C1\SC(=S)NC1=O)Nc1ccc(F)cc1,7.3,-0.5,11.8,0.724,14.4,1.3,-10.0%
CCCN(CCC)C(=O)c1ccc2c(c1)N(CC)C(=O)c1ccccc1S2(=O)=O,1.1,-0.3,3.6,0.677,-0.5,-11.5,·
Cc1ccc(CNC(=O)COC(=O)CSc2ccc(Br)cc2C)cc1,1.7,-0.8,1.8,0.689,1.8,-8.6,·
CCn1c(SCC(=O)N/N=C/c2c[nH]c3ccccc23)nnc1-c1ccc(Cl)cc1,·,0.4,14.8,·,-0.7,-4.6,-2.1%
CCCCn1c(N)c(N(CCOC)C(=O)c2cc(S(=O)(=O)N3CCCCC3)ccc2Cl)c(=O)[nH]c1=O,-0.2,2.3,3.7,0.679,-2.2,5.1,-1.8%
O=C(OCc1cc(=O)n2c(n1)sc1ccccc12)c1ccc(O)cc1,-13.0,0.0,-14.4,0.72,-9.3,0.7,·
CCn1c(=O)cc(SCC(=O)NCCCN2CCC(C)CC2)c2ccccc21,·,0.8,0.5,·,-1.3,-0.1,7.9%
Cc1ccc(NCC(=O)N/N=C/c2c[nH]c3ccccc23)cc1,·,-0.2,-1.7,·,-2.7,-0.6,·
Cc1ccc(NC(=O)C(C)N2C(=O)c3ccccc3C2=O)cc1 (stereo unspecified),1.0,2.0,3.2,0.672,-5.8,7.6,3.4%
COc1ccc(CNC(=O)c2c(O)c3ccccc3n(C)c2=O)cc1,-3.9,-0.5,6.2,0.651,3.3,1.7,-22.2%
CC(NC(=O)c1c(F)cccc1Cl)c1ccc(-n2ccnc2)cc1 (stereo unspecified),2.7,1.1,10.9,0.718,0.5,-39.9,·
COc1ccc2nc(C)cc(SCC(=O)NNC(=O)COc3cccc4ccccc34)c2c1,-1.7,-0.4,14.7,0.682,0.8,1.6,-6.5%
O=C(Nc1cccc(-c2cn3cccnc3n2)c1)c1ccc2c(c1)OCO2,-328.1,-1.2,-18.0,0.689,-2.7,1.1,-1.5%
O=C(c1cc2c(s1)CCCC2)N1CCN(CCO)CC1,2.1,0.1,-10.6,0.702,4.5,-0.3,-0.3%
O=C(NC(=S)Nc1ccc(Cl)cc1Cl)C1CC1,6.3,-3.2,-2.0,0.751,1.6,-2.1,4.5%
CCNC(=O)N(CC)C[C@H]1N[C@@](C)(C(=O)OC)[C@H]2C(=O)N(C)C(=O)[C@@H]12,2.2,-0.4,7.9,0.707,-3.9,i,-3.8%
COc1ccc(NC(=S)NC(=O)C2CCCCC2)cc1,-2.2,0.3,-4.8,0.706,0.6,-4.0,·
Cc1cc(C)c(OCC(=O)Nc2nnn(C)n2)c(Br)c1,0.0,1.5,8.3,0.693,23.8,1.2,21.3%
CCCN=C1CC(C)(C)CC(=O)/C1=C(/O)CCCN1C(=O)c2ccccc2C1=O,·,0.7,-1.8,·,-0.2,0.3,30.0%
Cc1ccc(C)c(N(CC(=O)NCCC2=CCCCC2)S(C)(=O)=O)c1,0.5,0.9,8.7,0.678,-3.7,2.5,2.0%
CCOC(=O)N1CCC(NC(=O)Cn2cc3c(n2)CCC(C)C3)CC1 (stereo unspecified),-6.4,0.2,-8.0,0.736,0.3,0.2,7.3%
COc1ccc(Nc2oc(-c3ccc(Cl)cc3)nc2C#N)cc1,-455.1,-0.4,-9.1,0.715,1.1,-1.5,-5.5%

Limited to HNF4A DNA FP, for some of the entries so far:
Structure	HNF4A DNA FP
CCO/N=C(\C)c1c(O)c(CC)c(-c2ccccc2)n(-c2ccccc2)c1=O	0.7
COc1ccc(-c2nnc(SCC(=O)Nc3ccc(C(=O)O)cc3)n2-c2ccc(Cl)cc2)cc1	-5.4

Next part:
Structure,UCH37 inh,Bfl-1 A1 inh,Beta2AR agonist,Ecoli growth,HNF4A DNA FP,LANA-H2B inh,Vif TR-FRET
O=C(c1ccc(Cl)c([N+](=O)[O-])c1)N1CCN(c2ccccn2)CC1,2.3,-0.2,-5.1,0.683,3.5,-0.4,-5.8%
Fc1ccc(OCCCn2ccnc2)cc1,2.9,0.5,0.9,0.697,3.2,2.7,·
CC1(N2CCOCC2)CC2(O)C(=[N+]1[O-])CCc1c2no[n+]1[O-] (stereo unspecified),15.0,0.9,9.1,0.671,-1.0,1.3,28.7%
COc1ccc(Cl)cc1NC(=O)CN1CCN(Cc2ccccc2)CC1,0.1,0.1,-3.1,0.644,-3.5,-2.1,·
COc1ccc(C(=O)N/N=c2\oc3ccccc3cc2C(N)=O)cc1,·,-0.1,-5.6,·,1.5,-2.0,6.6%
Cc1cccc(OCc2nc(-c3ccc(Br)o3)no2)c1,1.3,-0.3,-2.8,0.709,-0.1,-3.4,-2.6%
Cc1cc(=O)n2nc(N3CCC(C(=O)NCc4ccccc4F)CC3)sc2n1,0.9,-1.7,-1.7,0.724,-1.6,2.8,·
COc1cc(C2c3cc4c(cc3OC(N3CCCCC3)C2C)OCO4)cc(OC)c1O (stereo unspecified),·,·,-17.0,·,-7.1,·,0.0%
COC(=O)c1ccc(Oc2nc(N(C)C)nc(N3CCOCC3)n2)cc1,2.7,-0.8,-9.7,0.693,-0.5,-2.3,1.5%
Cc1ccc(C(c2nnnn2CCc2ccccc2)N2CCSCC2)cc1 (stereo unspecified),2.6,-0.8,-0.5,0.746,-0.3,-5.4,5.1%
Cc1c(Cc2ccccc2)c(NCCN(C)C)n2c(nc3ccccc32)c1C#N,-106.0,-0.4,2.6,0.667,1.2,-1.4,12.3%
O=C(Nc1cccc(CCc2ccccn2)c1)c1cc(F)c(F)cc1Cl,1.7,-1.1,-10.8,0.602,-0.9,3.9,-5.3%
CC(=O)C1=NOC(CNc2ncc(C(F)(F)F)cc2Cl)C1 (stereo unspecified),1.8,0.9,3.8,0.658,3.6,5.4,·
CC(C)CN(C(=O)CN1CCN(c2cccc(Cl)c2)CC1)c1c(N)n(CC(C)C)c(=O)[nH]c1=O,-4.0,0.6,7.7,0.681,3.7,6.1,13.6%
COc1ccc(CCN2CCCC(CN(C)Cc3cccc(OC)c3)C2)cc1 (stereo unspecified),1.4,?,7.2,0.67,6.3,-2.2,-0.4%
CCOC(=O)c1nn(-c2ccc(OC)cc2)c(=O)c2c(N)scc12,9.9,-0.7,-2.0,0.729,1.7,-0.2,15.0%
COc1ccc([C@H]2[C@H](C(=O)OC(C)(C)C)N3N=Cc4ccccc4C3C23C(=O)c2ccccc2C3=O)c(OC)c1 (stereo partly specified),-0.2,-0.1,9.9,·,-1.1,·,14.4%
CCOC(=O)/C(C#N)=C\C1=C(N2CCCC2)CC(C)(C)OC1,5.7,0.0,-15.3,0.789,-2.9,-0.5,23.8%
O=C(NCCn1cccn1)c1ccc(OC2CCN(C(=O)C3CC3)CC2)cc1,-0.8,-0.3,-2.1,0.705,-0.5,-2.1,·
COc1cc(C=O)ccc1OCCCOc1ccccc1C(=O)O,1.4,0.1,-2.7,0.728,-2.4,4.7,8.0%
c1ccc(C(c2ccccc2)N2CCN(Cc3nc(-c4cnccn4)no3)CC2)cc1,2.4,0.2,5.0,0.68,-6.3,-5.0,24.1%
CCOc1ccc(NC(=O)CSc2nnc(C)n2CC)cc1,3.4,-0.4,2.3,0.632,3.2,-0.3,·
NC(=O)c1ccc(-c2ccccc2F)cc1,2.4,0.6,-1.6,0.64,7.2,4.0,30.5%
CCOc1ccc(NC(C(=O)Nc2cccc(C(C)=O)c2)c2ccccc2)cc1 (stereo unspecified),5.9,-0.4,-0.2,0.669,2.6,·,·
Cc1noc(C)c1C(=O)NCCc1ccccc1,0.2,0.1,26.5,0.688,1.0,-1.8,28.3%
CNC(=O)C(=O)NCC(c1cccs1)S(=O)(=O)c1ccc(F)cc1 (stereo unspecified),4.1,0.0,-1.3,0.661,6.7,-15.3,·
Cn1c(CSc2nc3ccccc3s2)n[nH]c1=S,5.4,0.2,2.9,0.635,-1.6,-1.8,-6.0%
COc1ccc(CNc2nc3nc(-c4ccccc4)cc(=O)n3[nH]2)cc1OC,2.1,0.4,7.2,0.759,-0.4,1.1,6.6%
Cc1ccc(CNC(=O)CNC(=S)N(Cc2ccccc2)Cc2cccnc2)cc1,1.5,0.8,2.7,0.694,2.7,-1.6,·
C=CCn1cccc(C(=O)Nc2ccc(OC)c(OC)c2)c1=O,7.0,1.5,-5.3,0.714,5.1,2.6,-0.2%
Cc1cccc(C)c1NC(=O)CN(C)C(=O)C1CCN(c2ncnc3sc(C)c(C)c23)CC1,-0.2,-0.1,-1.2,0.653,-1.4,3.5,-4.5%
O=C(NCc1ccccc1)C(Cc1ccccc1)NS(=O)(=O)c1cccc2nsnc12 (stereo unspecified),-1.0,-0.2,-7.6,0.675,0.4,0.5,19.5%
COc1ccc(NC(=O)CCC(=O)Nc2cc(OC)c(NC(=O)c3ccco3)cc2OC)c(OC)c1,-36.4,-0.7,-16.8,0.65,4.8,2.0,-4.8%
COc1cc(NS(=O)(=O)c2ccc(NC(=S)NC(=O)c3ccccc3)cc2)nc(OC)n1,1.3,0.7,-0.4,0.676,3.3,-1.3,8.7%
CCOC(=O)C1(CCOc2ccccc2)CCN(Cc2ccc(-n3cccn3)cc2)CC1,3.2,-1.1,-10.3,0.657,7.2,-0.4,?
CCC(Oc1ccccc1)C(=O)Nc1nnc(C(F)(F)F)s1 (stereo unspecified),1.7,-0.3,-1.4,0.677,-2.3,-1.3,24.3%
CC(C)Cn1cnc2c1c(=O)n(CC(=O)Nc1ccc3c(c1)OCO3)c(=O)n2Cc1ccccc1,-1.6,0.8,2.6,0.694,-1.1,0.2,12.4%
CCOC(=O)c1c(N)c(C#N)cn1-c1ccccc1,2.6,0.8,-9.1,0.68,-3.5,7.4,13.9%
Cc1ccc(N/C=C2\C(=O)C3(C)CCC2C3(C)C)cc1C (stereo unspecified),6.2,-0.4,-6.5,0.676,1.2,-1.7,21.7%
